From PubChem BioAssay
Kir21 block: blocks the mouse Kir2.1 inward-rectifier potassium channel | P35561 | 310,000 compounds, 0.85% hits | HEK293-Kir2.1, FluxOR thallium flux fluorescence; stronger effect = lower value | AID 1672 | B-score at 10 µM;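 active = fluorescence ratio B-score at or below minus 3 SD of library scores, with starting-brightness B-score within 2 SD, cut at about -4.2 in these data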;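 note: channel flux triggered by added potassium and thallium sulfate stimulus; B-score of peak minus minimum fluorescence over baseline after thallium stimulus; more negative B-score means stronger Kir2.1 block with less thallium influx; some compounds called inactive have numbers as strong as hits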
Target sequence (P35561 whole entry, looked up): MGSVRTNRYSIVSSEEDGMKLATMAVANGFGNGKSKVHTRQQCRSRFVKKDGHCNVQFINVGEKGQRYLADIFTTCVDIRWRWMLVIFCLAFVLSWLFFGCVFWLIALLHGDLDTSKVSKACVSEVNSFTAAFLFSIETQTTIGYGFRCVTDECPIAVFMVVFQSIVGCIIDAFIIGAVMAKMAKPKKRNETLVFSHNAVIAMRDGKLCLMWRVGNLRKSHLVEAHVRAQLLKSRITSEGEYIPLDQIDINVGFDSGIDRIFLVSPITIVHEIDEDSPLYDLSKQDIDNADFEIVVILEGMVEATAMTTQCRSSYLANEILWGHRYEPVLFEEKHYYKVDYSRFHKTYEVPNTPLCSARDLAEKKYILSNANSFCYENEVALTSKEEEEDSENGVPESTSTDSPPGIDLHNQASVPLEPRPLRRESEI
Starred values were filed as active, the others as inactive. An excerpt, and most or all hits are left out here.

SMILES	Kir21 block
COc1ccc(C)cc1S(=O)(=O)N1CCN(C(=O)c2ncoc2-c2ccccc2C)CC1	0.19
Cc1cc(Br)ccc1NC(=O)CN1C(=O)CCC1=O	0.81
CCn1c(=O)n(CC(=O)NCc2ccccc2OC)c(=O)c2ccccc21	-0.48
Cc1ccc(C)c(-n2nnnc2SCC(=O)Nc2c(C)n(C)n(-c3ccccc3)c2=O)c1	-0.09
c1ccc(CN=C2NN=C(c3ccccc3)CS2)cc1	-0.7
Fc1ccc(NCc2nnc(SCc3nnc(-c4ccccc4)o3)n2Cc2ccccc2)cc1	-0.27
N#CCSc1nc2ccccc2c(=O)n1CCCC(=O)NCC1CCCO1 (stereo unspecified)	0
CCOC(=O)c1ccc(N(C(=O)c2ccco2)C(C(=O)NC2CCCCC2)c2ccncc2)cc1 (stereo unspecified)	1.1
CC(=O)N1CCc2cc(S(=O)(=O)NC(CC(C)C)C(=O)N3CCCC3)ccc21 (stereo unspecified)	-0.79
CCOC(=O)c1sc(NC(=O)c2cccnc2)nc1C	-1.2
Cc1c(C(=O)NCCS(=O)(=O)N2CCN(c3ccccc3F)CC2)cccc1[N+](=O)[O-]	-1.3
COCCSc1ccccc1C(=O)Nc1ccccc1C(C)C	0.09
Cc1ccc(C(=O)Nc2nnc(C3CCCCC3)s2)o1	0.61
O=C(COc1ccc(Cl)cc1)Nc1ccc(Cl)cn1	1.1
CCCN(CCC)C(=S)Nc1cc(C(=O)OC)ccc1C(=O)OC	-0.57
Cc1ccc(NC(=O)Nc2ncccc2C)cc1	0.02
COc1ccc(CNC(=O)COC(=O)CCC2CCCCC2)cc1	-0.13
CCOc1cc(C2C(C#N)=C(N)OC3CCCC(=O)C32)ccc1OCCN1CCOCC1 (stereo unspecified)	1.3
O=S1(=O)C=C(Sc2nnc(-c3ccccc3)o2)c2ccccc21	-0.68
Cc1ccc(C(=O)Nc2cccc(C(F)(F)F)c2)cc1Nc1cnccn1	-0.73
Cc1ccc(-c2csc(NC(=O)CSc3ncn(-c4ccccc4)n3)n2)cc1	-0.35
COc1ccc(C=O)c(OC)c1	1.6
O=C(OCc1cnc(Cl)s1)c1cccc(Cl)c1	0.57
Brc1ccc(-c2cnnc(N3CCCC3)n2)cc1	0.44
S=c1[nH]nc(-c2ccccn2)n1/N=C/c1ccco1	1.2

By substructure: the entries above with bromine.
SMILES	Kir21 block
Cc1cc(Br)ccc1NC(=O)CN1C(=O)CCC1=O	0.81
Brc1ccc(-c2cnnc(N3CCCC3)n2)cc1	0.44

Laid out differently: entries from further up.
structure | Kir21 block
O=C(COc1ccc(Cl)cc1)Nc1ccc(Cl)cn1 | 1.1
CCCN(CCC)C(=S)Nc1cc(C(=O)OC)ccc1C(=O)OC | -0.57

Some of the entries so far, in CSV form.
mol,Kir21 block
CCCN(CCC)C(=S)Nc1cc(C(=O)OC)ccc1C(=O)OC,-0.57
N#CCSc1nc2ccccc2c(=O)n1CCCC(=O)NCC1CCCO1 (stereo unspecified),0
CCOC(=O)c1sc(NC(=O)c2cccnc2)nc1C,-1.2
O=S1(=O)C=C(Sc2nnc(-c3ccccc3)o2)c2ccccc21,-0.68
CCOC(=O)c1ccc(N(C(=O)c2ccco2)C(C(=O)NC2CCCCC2)c2ccncc2)cc1 (stereo unspecified),1.1
O=C(OCc1cnc(Cl)s1)c1cccc(Cl)c1,0.57
Fc1ccc(NCc2nnc(SCc3nnc(-c4ccccc4)o3)n2Cc2ccccc2)cc1,-0.27

Next section.
SMILES	Kir21 block
CCOc1ccccc1NC(=S)NCC1CCCO1 (stereo unspecified)	-0.06
c1ccc(CSc2nncn2-c2ccccn2)cc1	0.24
Cc1onc(-c2ccccc2)c1C(=O)OCc1nnc(-c2ccccc2)o1	1.7
O=C(CCCN1C(=O)/C(=C/c2ccccc2Cl)SC1=S)N1CCCC1	-0.01
O=C(COC(=O)CCCC1=NS(=O)(=O)c2ccccc2N1)Nc1ccc(Br)cc1	1.2
Oc1ccc(C[C@@H]2CNCCN2CC2(c3ccccc3)CC2)cc1	-0.46
Cc1nc(NS(=O)(=O)c2ccc(Br)cc2)c2c3c(sc2n1)CCC3	0.97
COc1ccc(C(=O)NCCCn2ccnc2)cc1	-0.46
CC1(c2nnc(Cc3ccccc3)o2)CC(c2ccc(F)cc2)=NO1 (stereo unspecified)	-1.6
CN1CCN(c2nnc(-c3ccc(Cl)cc3)c3ccccc23)CC1	-1.7
COc1cc2oc3cc(C#Cc4ccc(N)cc4)ccc3c(=O)c2cc1OC	-1.3
CCN1C(=O)[C@H]2[C@@H](c3ccc(Cl)cc3)N3C(=O)CN(CCOC)C(=O)[C@@]3(Cc3ccccc3)[C@H]2C1=O	-0.02
Nc1nnn(Cc2ccccc2)n1	2.1
CCOC(=O)CC(NC(=O)c1ccc(C)cc1)c1ccc(C)cc1 (stereo unspecified)	-0.23
COc1cc(NC(=O)c2onc(C)c2Cl)cc(OC)c1OC	-2.5
N#C/C(=C\C=C\c1ccccc1[N+](=O)[O-])C(=O)NC1CCCCC1	0
O=C(c1ccccc1)c1cc(F)c(N2CCOCC2)cc1Cl	-1.6
O=C(O)/C=C/c1cccc(NC(=O)c2ccccc2)c1	0.76
Cc1c(C=O)c(=O)n(-c2ccccc2)n1C	-1.8
O=C1c2cnc3nc(SCc4cccc(Cl)c4)nn3c2CC2c3ccccc3CCN12 (stereo unspecified)	-0.83
O=C1C(Cl)=C(N2CCCCC2)C(=O)N1Cc1ccccc1	-2.8
CCc1ccc2[nH]c(=O)c(C(c3nnnn3CCOC)N3CCN(c4ccccc4)CC3)cc2c1 (stereo unspecified)	0.98
CCOC(=O)C1=C(COC(=O)CNC(=O)c2ccc(C)cc2)NC(=O)NC1C (stereo unspecified)	-0.16
O=C(NC(=S)Nc1cccc2[nH]ncc12)c1ccccc1	-1.3
CCS(=O)(=O)N1Cc2ccccc2CC1C(=O)Nc1cc(S(C)(=O)=O)ccc1Cl (stereo unspecified)	-0.09
SMILES	Kir21 block
Cc1cccc(OCC(=O)NCC(=O)N/N=C/c2ccc([N+](=O)[O-])cc2)c1	0.68
C=CCN1C=C2C(=O)C(C)(OC(=O)c3cnc4ccccc4n3)C(=O)C=C2C=C1/C=C/COC (stereo unspecified)	1
COC(=O)c1sccc1NC(=O)Nc1cc(C)ccc1OC	1.7
N#C/C(C(=O)N1CCCCC1)=C1/N=C(N)c2ccccc21	0.6
O=C(C1=C(O)C(=O)N(c2nccs2)C1c1ccccc1)c1cc2ccccc2o1 (stereo unspecified)	-9.4
COc1cccc(N2CC(NS(=O)(=O)c3ccc(Cl)cc3)CC2=O)c1 (stereo unspecified)	-0.86
Cc1ccc(Cl)cc1NC(=O)COC(=O)C1CCCCC1	1.2
CN(Cc1ccccc1)S(=O)(=O)c1cc2c3c(c1)CCN3C(=O)CC2	2.2
COc1ccc(C(=O)NCC(=O)O)cc1	-1.9
Cc1ccc(NC(=O)Cn2c(=O)oc3cc(S(=O)(=O)N4CCC(C)CC4)ccc32)cc1C	-0.87
CCOC(=O)c1ccc(N=C2SC(C(=O)NC)CC(=O)N2Cc2ccc(F)cc2)cc1 (stereo unspecified)	-0.07
Cc1ccc(NC(NC(=O)c2cccnc2)C(Cl)(Cl)Cl)cc1 (stereo unspecified)	-2.3
COc1cc(C)nc(OCCNS(=O)(=O)c2cc(C)ccc2C)n1	1.2
CC(C)(C)c1cc(C(C)(C)C)cc(S(=O)(=O)CCc2ccccn2)c1	0.7
N#CC1=C2N=C(N)c3c(sc4c3CCCCC4)N2C2=C(C(=O)CCC2)C1c1ccccc1 (stereo unspecified)	1.4
O=C(NCCNCCO)C1(C(F)(F)F)C/C(=C\Cc2ccccc2)CCCO1 (stereo unspecified)	-1.4
COc1cccc(CN2CC(C(=O)NCc3cnn(C)c3)CCC2=O)c1 (stereo unspecified)	-0.11
O=C(NCc1cccnc1)c1ccc(Cl)c(S(=O)(=O)Nc2ccccc2C(=O)NCc2cccnc2)c1	0.2
CC(C)(C)c1ccc(C(=O)NCC(=O)N2CCCC2)cc1	0.05
COC(=O)Cc1ccc(NC(=S)NCc2ccc(S(N)(=O)=O)cc2)cc1	-0.97
CCC(=O)N1N=C(c2ccc(C)o2)CC1c1ccc(N(C)C)cc1 (stereo unspecified)	0.09
COC(=O)c1ccc([C@@H](O)[C@H](C)C(=O)CC(=O)OC(C)(C)C)cc1	-0.1
CC(=O)c1ccc(NC(=O)CSc2nnc(C3CC3)n2C)cc1	1
CCC(=O)Nc1cccc(NC(=S)NC(=O)Cc2ccccc2)c1	0
N#Cc1c(C#N)c(-c2ccccc2)n(-c2ccccc2)c1N	-1
SMILES	Kir21 block
CCN(C(=O)CN1C=NS(=O)(=O)c2ccccc21)c1ccccc1	1.7
O=C(COC(=O)C1CC2C=CC1C2)NCc1ccccc1Cl (stereo unspecified)	-2
Cn1c(C(C(=O)NCC2CCCO2)N(C(=O)Cn2nnc3ccccc32)C2CCCCC2)nc2ccccc21 (stereo unspecified)	-1.1
COc1ccc(C(=O)NCCSc2ccccc2)cc1OC	-1.6
CC(C)[C@H](NC(=O)NCc1cccs1)C(=O)O	1.1
Cc1cccc(-c2n[nH]c(=S)n2-c2ccccc2)c1[N+](=O)[O-]	-1.3
COC(=O)C1=C(C(=O)OC)[C@@H]2N(C)c3ccc(OC)cc3[C@@]23C[C@@H](C(=O)OC)N(S(=O)(=O)c2ccc([N+](=O)[O-])cc2)C3=N1	0.42
CSCCC(NS(=O)(=O)/C=C/c1ccccc1)C(=O)O (stereo unspecified)	0
O=C(c1cccc(Oc2ccccc2)c1)N1CCOCC1	-1
Clc1ccc(OCc2nc(-c3ccccn3)no2)c(Br)c1	2
CCCSc1nc2sc3c(c2c(=O)[nH]1)CC(C)(CC)OC3 (stereo unspecified)	-0.51
CN1CCN(C(=O)C2=C[C@@H](c3ccc(C(F)(F)F)cc3)C[C@@H](OCCCCO)O2)CC1	0.04
CCOC(=O)c1ccc(Nc2nc(C)nc3c2nnn3Cc2ccccc2)cc1	1.3
Cc1cccc(C)c1NC(=O)CNC(=O)c1ccccc1OCc1ccccc1	-0.99
CCN(CC)S(=O)(=O)c1ccc(O)c(NC(=O)CN2CCc3ccccc3C2)c1	0.26
COc1ccc(C(CNS(=O)(=O)c2ccccc2)N2CCN(C)CC2)cc1 (stereo unspecified)	0.04
FC(F)(F)c1ccc2nnc(-c3c(Cl)cccc3Cl)n2c1	-0.69
C/C(=N\NC(=O)c1cccs1)C(C)(C)C	-0.02
Cc1ccnc(NC(=O)CSc2cc(=O)n(C)c3ccccc23)c1	0.11
COc1ccc(-c2nnc(-c3cccs3)o2)cc1OC	2.8
CCn1c(C)c2c(C)nnc(C)c2c1C	0.04
CCC(C(=O)NC(C)c1ccccc1)C(=O)NC(C)c1ccccc1 (stereo unspecified)	3.1
COc1ccc(C2NC(=O)NC(C)=C2C(=O)OCc2ccc3c(c2)OCO3)cc1OC (stereo unspecified)	0
O=C(C1=C[C@@H](c2csc3ccccc23)C[C@@H](OCc2ccc(CO)cc2)O1)N1CCN(Cc2ccc3c(c2)OCO3)CC1	0.19
CCOP(=O)(OCC)C(NC(=O)Nc1ccc(C)c(Cl)c1)c1ccccc1 (stereo unspecified)	0.59
SMILES	Kir21 block
CCOC(=O)c1ccc(-c2ccc(C=O)o2)cc1	0
O=C(CN1CC[C@@]2(O)CCCC[C@H]2[C@@H]1c1ccc(F)cc1)NCc1ccco1	-1.2
CCCNC(=S)N1CCC(n2cnc3ccccc32)CC1	0.59
COC(=O)c1c(NC(=S)Nc2ccc(CC(=O)O)cc2)sc(C)c1C	0.08
COCCCNC(=O)C1CCC(CNS(=O)(=O)c2ccc(Cl)cc2)CC1 (stereo unspecified)	1.2
Fc1ccc(CNC(=S)NCc2ccccc2)cc1	-1.6
CCOC(=O)c1c(NC(=O)c2ccno2)c2cc([N+](=O)[O-])ccc2n1C	0
Cc1c(F)cccc1NC(=O)CCCCCC1NC(=O)NC1C (stereo unspecified)	1.1
Cc1cc(N2C(=O)C3C4CC(C(Br)C4Br)C3C2=O)no1 (stereo unspecified)	0.82
COCCn1c(-c2ccc(F)cc2)nc2cccnc21	0.38
Cc1nonc1OCCNCCNc1ccc([N+](=O)[O-])cc1Cl	1
COc1ccc(C)cc1NC(=O)CCNC(=O)Cn1cnc2ccccc2c1=O	-3.2
C=CCOc1ccc(CNc2nccs2)cc1OC	-0.44
O=C(CCC(=O)N1CCOc2ccccc21)NCCCN1CCCCC1	1.2
O=C(NC(=S)Nc1ccc(S(=O)(=O)N2CCCC2)cc1)C1CC1	1.8
O=C(C(NS(=O)(=O)c1cccc2nsnc12)c1ccccc1)N1CCN(c2ccccc2)CC1 (stereo unspecified)	-0.06
CCSc1nnc2c(n1)OC(c1ccc(C(=O)O)cc1)N(C(C)=O)c1ccccc1-2 (stereo unspecified)	-0.29
CC1(C)CC(NC(=O)CSc2ccccc2)CC(C)(C)N1	1.2
O=C(NCCS(=O)(=O)N1CCN(c2ccccc2)CC1)C1CCCC1	1.3
O=C(O)c1cc(S(=O)(=O)N2CCCCC2)ccc1F	0.77
COc1cc(NC(=O)CCCl)cc(-n2cnnn2)c1	0.03
O=S(=O)(NC1CCCCCC1)c1cccc2cccnc12	-1.4
CC1=C(C(=O)OCC2CCCO2)C(c2ccncc2)C2=C(CC(C)(C)CC2=O)N1 (stereo unspecified)	-0.36
CCOC(=O)c1c(NC(=O)c2cc(-c3cccc(O)c3)on2)sc(C(C)=O)c1C	0.19
Cc1cc(=O)[nH]c(CN2CCC(c3ccccc3)CC2)n1	-0.09
Cc1cccc(NS(=O)(=O)c2cccc(C(=O)N3CCN(S(=O)(=O)c4ccccc4)CC3)c2)c1	0.35
Cc1ccc(NC(=O)C2Cc3ccccc3CN2C(=O)c2ccco2)cc1S(=O)(=O)N(C)C (stereo unspecified)	0.36
O=C(Nc1cccc(F)c1)c1sc(Cl)nc1-c1ccccc1	-0.66
